# From PubChem
# CtBP-E1A inh – blocks the CtBP interaction with E1A. AlphaScreen GST-E1A/His-CtBP binding, 1536-well; hits give low values; control for the full effect not named in the record. activity change, % (no concentration beside the values). 0.49% of 340,000 active; in the data active means activity change below about -65%; inconclusive means about -30% to -65%; inactive means above about -30%; also: % is scaled to controls: 0 for no effect and ±100 for the full control effect; compound concentration not given in the record
#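 Protein mix (5X: 125 nM each GST-E1A, His-CtBP) was incubated with pinned compound 2 h at 37 deg C in dark, in 50 mM Tris pH 8.0 buffer with 300 mM NaCl. Glutathione donor and nickel acceptor beads followed; AlphaScreen signal read after 1 h.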
# TRPML1 agonist – human mucolipin-1 channel agonism | Q9GZU1 | TRPML1-expressing cells, Ca2+ dye fluorescence, FDSS; host cell line not named in the record; reference of the full effect not given here | activation, % (concentration not given with the values) | 0.12% of 410,000 active | AID 624414; in the data active = activation above about 50%; inconclusive = about 30% to 50%; inactive = below about 30%; also: 0% is about no effect; the text of the record puts the active cut at 80%
# Target sequence (Q9GZU1 whole entry, looked up): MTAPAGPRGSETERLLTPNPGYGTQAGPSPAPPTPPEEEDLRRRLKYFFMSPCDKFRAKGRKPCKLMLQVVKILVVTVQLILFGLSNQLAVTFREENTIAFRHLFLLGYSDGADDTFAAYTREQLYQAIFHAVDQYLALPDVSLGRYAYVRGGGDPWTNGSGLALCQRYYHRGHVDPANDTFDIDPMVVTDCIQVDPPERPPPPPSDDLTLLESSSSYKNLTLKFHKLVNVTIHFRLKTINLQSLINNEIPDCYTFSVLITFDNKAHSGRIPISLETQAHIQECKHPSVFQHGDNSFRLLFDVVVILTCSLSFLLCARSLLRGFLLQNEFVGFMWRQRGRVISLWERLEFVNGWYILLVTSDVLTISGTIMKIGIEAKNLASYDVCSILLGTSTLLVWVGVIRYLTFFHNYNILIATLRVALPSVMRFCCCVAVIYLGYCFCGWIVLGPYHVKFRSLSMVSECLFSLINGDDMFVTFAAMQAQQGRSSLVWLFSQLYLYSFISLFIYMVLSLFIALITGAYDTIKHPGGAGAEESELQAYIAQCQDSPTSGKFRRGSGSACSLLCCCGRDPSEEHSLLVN
#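 Kinetic FDSS Ca2+ read in Tet-induced TRPML1-DL cells (ABD Ca8 dye plus quencher, 45-90 min RT loading): baseline, then compound, then 110 s agonist window; EC80 agonist 54-4 at 4uM final added afterwards for a 110 s antagonist window.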
# TRPML1 inh – blocks the human TRPML1 channel | 0.02% of 390,000 active | TRPML1-inducible cells, Ca2+ dye fluorescence, FDSS; hits give low values; inhibition of EC80 agonist-evoked calcium signal | AID 624415 | activity change, negative = inhibition, % (no concentration beside the values); in the data active means activity change below about -50%; inconclusive means about -30% to -50%; inactive means above about -30%;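 also: stimulus is agonist 54-4 at its EC80 concentration; % is scaled to controls: 0 for no effect and ±100 for the full control effect; compound concentration not given in the record; the text of the record puts the active cut at -80%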
#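 Calcium fluorescence in TRPML1-DL cells induced overnight with Tet: a 110 s read after compound pin addition, then a 110 s antagonist read after challenge with 54-4 at 4 uM final (EC80).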
# Six1-Eya2 inh – inhibitors of human Six1/Eya2 interaction | Q15475+O00167 | AlphaScreen GST-Six1/His-Eya2 binding, biochemical; hits give low values; control for the full effect not named in the record | activity change, % (no concentration beside the values) | 0.56% of 360,000 active; in the data active = activity change below about -65%; inconclusive = about -30% to -65%; inactive = above about -30%; also: % is scaled to controls: 0 for no effect and ±100 for the full control effect; compound concentration not given in the record
#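 Six1/Eya2 binding was read as AlphaScreen signal after compounds were pinned into GST-Six1 plus His-tagged Eya2 (5X stock 250/500 nM) in pH 8.0 Tris/NaCl/TCEP buffer, beads added, then incubated 1 h, 37 C, dark.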
# D2 ag – agonists of human D2 dopamine receptor (beta-arrestin). activation, % (no concentration beside the values). DiscoveRx PathHunter D2 beta-arrestin, luminescence, 90 min; 100% = 57 uM dopamine signal. P14416. 0.084% of 360,000 active; in the data active = activation above about 40%; inconclusive = about 15% to 40%; inactive = below about 15%; also: compound concentration not given in the record; the text of the record calls up to 30% inactive
# Target sequence (P14416 whole entry, looked up): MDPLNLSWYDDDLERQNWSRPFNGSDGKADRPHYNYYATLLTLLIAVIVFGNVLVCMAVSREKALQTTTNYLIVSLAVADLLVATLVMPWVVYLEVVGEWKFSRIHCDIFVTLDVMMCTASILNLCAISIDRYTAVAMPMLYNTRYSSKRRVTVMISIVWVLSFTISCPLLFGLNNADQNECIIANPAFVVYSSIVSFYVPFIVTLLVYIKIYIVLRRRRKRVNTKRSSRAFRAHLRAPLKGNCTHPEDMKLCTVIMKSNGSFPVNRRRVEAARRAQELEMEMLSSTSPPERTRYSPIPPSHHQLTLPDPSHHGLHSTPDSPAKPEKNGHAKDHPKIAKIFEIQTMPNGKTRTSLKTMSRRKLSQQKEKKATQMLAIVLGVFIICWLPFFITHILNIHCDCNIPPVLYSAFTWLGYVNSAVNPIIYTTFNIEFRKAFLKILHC
#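 Agonist mode: compounds alone added to overnight-plated D2 PathHunter cells for 90 min at 37 C, with 57 uM final dopamine (EC100) defining full response. Beta-arrestin recruitment detected by chemiluminescent reagent, read after 1 h at ambient temperature.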
# PINK1 expr mod – modulators of PINK1 expression; PINK1 immunofluorescence, high-content cytometry, 24 h; Potency, µM (doses to about 76.6 µM), without a hit: top-dose activation (PINK1 increase), usual class: activators; 0.2% of 410,000 active; active = well fitted activation curve with a large enough effect; inconclusive = small, poorly fitted or top-dose-only effect; inactive = flat fitted curve, though single readings scatter; cell line not stated here;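 also: potency is read from the fitted curve at half-maximal effect; % of control where 0% means no effect; nearly all actives have a fitted effect of over 65% in size; a mitochondrial uncoupler was the plate control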
#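 Compound titrations (5 concentrations, 24 h) on a stable cell line; DMSO and CCCP controls. Endpoint: fixed-cell PINK1 immunofluorescence with mitochondrial, cell and nuclear markers, scanned by microplate cytometer.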
# Active calls of the source: *; ? = inconclusive; . = not tested or not shown; [ ] = another dose, or the depositor's remark.
SMILES,CtBP-E1A inh,TRPML1 agonist,TRPML1 inh,Six1-Eya2 inh,D2 ag,PINK1 expr mod
CC(C)N(C(=O)COC(=O)c1ccc(Cl)c(S(N)(=O)=O)c1)C(C)C,-8.2,0.9,1.0,9.4,2.3,2.8%
CCO/N=C1\C(=O)N(c2ccccc2)c2ccccc21,3.5,2.5,-13.0,-0.3,0.9,2.1%
Cc1cc(OC(=O)c2ccc(Cl)cc2)cc(=O)n1C,-17.2,1.1,36.6,-92.4*,-0.5,5.1%
O=c1c2ccccc2n(Cc2ccc(F)cc2)c(=O)n1C1CCCC1,25.9,-0.1,-23.0,5.2,-5.1,27.8%
CCOC(=O)[C@]12CCCC=C1N(Cc1ccc(Cl)cc1Cl)C(=O)[C@H](CC(=O)NCc1cccc3ccccc13)C2,6.7,-0.1,.,-7.0,.,-0.1%
Fc1ccc(NCc2cn3ccccc3n2)cc1,-0.8,-0.3,3.1,0.1,2.0,-1.0%
Cc1ccc(Oc2ccc(C(=O)NC3CCSC3=O)cn2)cc1 (centres undefined),1.7,0.8,-6.9,4.0,-1.9,-1.4%
O=C(O)C1=C[C@@H](C2CC2)C[C@@H](OCc2ccc(CO)cc2)O1,-1.8,0.2,-1.1,-0.8,-4.0,0.0%
Cc1[nH]nc2c1C(c1ccc(OC(=O)c3ccco3)cc1)C(C#N)=C(N)O2 (centres undefined),-12.9,-0.1,5.4,-15.6,-4.2,-0.6%
CSC(=NS(=O)(=O)c1ccccc1)SC,-0.5,-0.3,-4.6,7.5,1.5,3.1%
CCCS(=O)(=O)NCCc1csc2nc(-c3ccc(C)cc3)nn12,.,2.2,-14.8,.,.,-0.4%
CCC1C(=O)NCCN1Cc1nc(-c2ccc(C)s2)oc1C (centres undefined),-3.6,1.3,-13.3,-3.9,-1.9,2.6%
CN(C)S(=O)(=O)c1ccc(C(=O)Nc2ccc3ncccc3c2)cc1,-8.9,-0.5,0.9,-8.6,13.9,4.3%
Cc1ccc2scc(N3CCC(C)CC3)c(=O)c2c1,.,0.1,-2.4,.,.,-0.9%
Cc1ccc(S(=O)(=O)N2CCOCC2)cc1C(=O)NCCc1ccc(Cl)cc1,3.1,-1.2,-1.1,3.5,1.8,0.9%
CC[C@@H](NCCCn1ccc(NC(=O)OCc2ccccc2)nc1=O)c1ccccc1,3.5,.,.,0.0,-3.1,2.0%
COc1ccc(Cl)cc1NC(=O)CSc1nnc2[nH]c(=O)cc(-c3ccccc3)n12,.,1.3,-5.4,.,.,9.5%
O=C(COc1ccccc1[N+](=O)[O-])Nc1ccc(N2CCN(C(=O)c3cccs3)CC2)cc1,-5.1,2.0,6.9,-20.6,?,-0.2%
CC1(C)CC2CC(C)(CN2C(=O)COC(=O)c2ccc(NC(=O)CC#N)cc2)C1 (centres undefined),.,-0.2,10.0,-2.2,13.8,0.9%
COc1cc(NC(=O)C2CCCN2S(=O)(=O)c2ccc3c(c2)CCC(=O)N3)cc(OC)c1 (centres undefined),-16.2,1.0,-10.9,0.0,-3.9,1.7%
O=C(Nc1ccc(F)cc1F)c1ccc(-n2cnc3cccnc32)cc1,.,0.4,9.3,.,.,0.3%
Cc1ccc(NC(=O)CN2C(=O)/C(=C\c3cccs3)SC2=S)cc1,-1.5,0.0,19.1,5.9,-1.3,21.0%
Cc1ccccc1NC(=O)Cc1nc(COC(=O)c2cc([N+](=O)[O-])ccc2N)cs1,-4.8,0.0,4.2,-5.0,-2.3,0.8%
c1ccc(-n2ncc3c(NCc4cccs4)ncnc32)cc1,0.5,0.1,6.3,-1.7,0.4,9.7%[38.3 µM]
COc1ccnc(Oc2ccccc2)n1,-20.3,-0.1,5.5,-4.7,-13.7,-2.2%
# Next part.
SMILES,CtBP-E1A inh,TRPML1 agonist,TRPML1 inh,Six1-Eya2 inh,D2 ag,PINK1 expr mod
CCc1ccc(NCc2nc(-c3ccccc3)no2)cc1,0.1,-0.4,-3.8,-4.4,-1.3,18.6%
O=C(c1cccc(Cl)c1)N1CCC(N2CCC(C(=O)N3CCCC3)CC2)CC1,3.7,0.2,10.6,-0.7,-1.6,-0.9%
COc1cccc(CN2CCNC(=O)C2CC(=O)N(C)CCc2ccccn2)c1 (centres undefined),5.2,-0.7,2.5,4.1,-3.1,1.6%
CCOC(=O)c1sc(=NC(=O)/C=C/c2ccccc2)n(C)c1C,4.5,-0.5,-10.7,3.3,-3.1,5.1%
CCN(CC)CCN(Cc1cc2cc(C)ccc2[nH]c1=O)C(=O)Nc1ccccc1OC,6.8,1.7,-1.6,-2.3,-2.1,-1.4%
CCCn1c(N)c(C(=O)CN2CCN(S(=O)(=O)c3cccs3)CC2)c(=O)[nH]c1=O,-0.3,-0.1,-0.7,-3.3,-4.5,-1.9%
CSc1nc(N)nc2c1ncn2CC(=O)N1CCN(Cc2c(C)cc(C)cc2C)CC1,1.8,-1.0,8.7,2.2,-0.2,4.7%
Cc1ccc(C(=O)N2CCCCC2)cc1NC(=O)c1nsc2ccccc12,.,0.9,7.9,.,.,-0.3%
Fc1ccc(N/N=C/C=C/c2ccccc2)c(F)c1,-13.5,3.5,-2.7,-7.9,-0.8,15.1%
Cc1nn(C(C)C(=O)NCCC2=CCCCC2)c(=O)c2nn(-c3ccccc3)c(C)c12 (centres undefined),.,2.0,-9.4,-3.2,-4.8,1.1%
COc1cc(OC)c(NC(=O)C2CCCO2)cc1Cl (centres undefined),6.6,1.8,-14.1,-3.0,1.1,-1.9%
CCN(CC(=O)Nc1ccc(NC(C)=O)cc1)C(=O)C1CCCN(C(=O)c2ccc(Cl)cc2)C1 (centres undefined),3.2,-0.1,-7.6,0.3,8.1,-0.8%
O=C(COc1ccccc1)Nc1nc(-c2ccc(S(=O)(=O)N3CCOCC3)cc2)cs1,-0.6,-0.2,5.5,-4.4,2.5,3.0%
COc1ccc(-c2nnc(SCc3cc(=O)c4cc(C)cc(C)c4[nH]3)n2C)cc1,.,3.2,41.8,.,.,3.0%
Cc1noc(C)c1C(=O)OCC(=O)Nc1ncc(Cl)c(C)c1Cl,0.0,0.4,-4.1,2.8,-6.0,-0.5%
Cc1ccc(NC2CCCN(C(=O)c3nonc3C)C2)cc1C (centres undefined),-7.5,-0.1,8.8,-7.1,-4.9,0.5%
CC(C)[C@H]1CN=C2N(CCNC(=O)CCC3CCCCC3)[C@H](Cc3ccc(O)cc3)CN21,-3.4,-1.2,2.6,1.7,-1.1,2.6%
CCCOC(=S)NC(=O)c1sc2ccccc2c1Cl,1.0,0.9,-9.4,-2.3,-1.8,2.7%[38.3 µM]
O=C(N/N=C(\CC(=O)c1cccs1)C(F)(F)F)c1ccncc1,-8.6,1.6,35.8,-0.5,-2.1,-1.2%
COc1ccc(CCN2C(=O)CCC2(C)c2nnnn2-c2ccc3c(c2)OCCO3)cc1OC (centres undefined),5.7,-0.2,.,7.4,.,-0.3%
CN(CC(O)COC(c1ccccc1)c1ccccc1)C1CCCCC1 (centres undefined),-5.2,2.4,1.0,-13.0,-12.4,0.9%
COc1ccc2cc3cc(C(=O)N4CCN(c5cccc(C(F)(F)F)c5)CC4)sc3nc2c1,.,-0.2,-12.7,.,.,5.9%
N=c1c2c(ncn1Cc1ccco1)Oc1c(ccc3ccccc13)C2c1ccccc1 (centres undefined),-11.7,2.4,46.4,-10.2,1.7,-2.0%
COc1cc(OC)c(OC)cc1/C=C/c1nc2cc3ccccc3cc2c(=O)n1-c1ccc(F)cc1F,.,0.4,13.8,.,.,1.1%
CC(C)(C)CC(=O)NCC(c1ccc2c(c1)OCO2)N1CCOCC1 (centres undefined),.,1.3,28.2,.,.,0.1%
# (next part)
SMILES,CtBP-E1A inh,TRPML1 agonist,TRPML1 inh,Six1-Eya2 inh,D2 ag,PINK1 expr mod
COc1cccc(C(=O)NC(=S)Nn2cnnc2)c1OC,0.6,-0.5,-18.7,0.7,-2.0,0.7%
CN(C)CCCN(C(=O)c1ccco1)c1nc2cc3c(cc2s1)OCO3,-12.5,0.5,24.4,-2.1,-11.1,0.4%
O=C1CCCN1CCCNC(=S)Nc1ccccc1,5.0,0.6,-9.5,-5.3,-2.4,1.7%
C=CCC1c2cccc(C(=O)O)c2C(=O)N1c1cccc(OC)c1 (centres undefined),.,0.8,27.3,5.8,-2.6,1.9%
CC(=O)Nc1nnc(SCC(=O)NCC2CCCO2)s1 (centres undefined),11.2,0.7,3.5,-0.5,-1.3,.
COc1cc(C(=O)NCC(c2cccs2)S(=O)(=O)c2cccs2)cc(OC)c1OC (centres undefined),.,0.0,3.8,.,.,2.5%
Cc1cc(NC(=O)Cn2cc(C(F)(F)F)cc(Cl)c2=O)no1,1.4,-0.7,-2.0,4.5,1.1,57.9%[38.3 µM]
CCOC(=O)c1ccccc1NC(=O)COC(=O)C1=COCCO1,6.6,-1.8,-9.8,9.4,-3.1,-0.5%
CCNC(=O)CC1C(=O)N(c2ccc(F)cc2)C(=O)N1Cc1ccc(OC)c(OC)c1 (centres undefined),.,0.2,24.2,.,.,0.1%
COC(=O)COc1cccc2c(=O)n(CC(=O)NCc3ccc(F)cc3)ccc12,0.2,0.0,-3.4,7.0,-6.4,10.5%
Cn1cccc1C(=O)OCC(=O)N1CC(=O)Nc2ccccc21,-5.6,.,.,1.0,-4.4,1.6%
Cc1ccc(C(=O)CNc2ccc(Br)cc2)cc1,8.1,-1.0,0.4,3.0,-11.3,4.0%[38.3 µM]
O=C(NC1CCCC1)C(c1ccc(Cl)cc1)N1CCc2ccccc21 (centres undefined),1.0,-1.1,8.5,-1.9,-0.7,11.1%
CC1(C)Cc2c(cnn2-c2ccccc2)C(NC(=O)c2ccoc2)C1 (centres undefined),-1.5,0.0,33.8,0.1,-0.7,2.9%
CC1CCCC(C)N1CCCNC(=O)c1ccc2nc(N3CCCCC3)sc2c1 (centres undefined),-1.8,0.1,8.1,-2.3,-4.2,-0.7%
Cc1noc(C)c1S(=O)(=O)N(C)C[C@H]1OCc2cnnn2CCCC(=O)N([C@@H](C)CO)C[C@H]1C,-3.8,-0.3,-6.9,10.0,-4.0,3.4%
CCOc1ccc(NC(=O)N2CCN(C(=O)c3ccco3)CC2)cc1,-4.9,0.3,36.0,11.9,-4.6,-1.2%
CC1CCCCN1CCNC(=O)c1ccc2c(c1)N(Cc1cccc(Cl)c1)C(=O)c1ccccc1S2=O (centres undefined),0.3,1.6,10.3,-12.9,-6.8,0.1%
NC1=NC[C@@H](Cc2ccc(O)cc2)N1CCC12CC3CC(CC(C3)C1)C2,-2.1,2.5,2.4,-18.1,-1.3,5.4%
Cc1ccccc1NC(=O)CSc1nnc(COc2ccc(Cl)cc2)o1,.,0.2,57.6,.,.,0.6%
NC(=O)c1c(-c2cccs2)csc1N,-6.7,-0.1,5.5,-6.5,8.4,-3.4%
O=C(Cn1cc(S(=O)(=O)Cc2cccc(F)c2)c2ccccc21)N1CCOCC1,6.2,-0.1,-15.3,11.4,-2.3,1.1%
C/C(=N\NC(=O)c1cc(C)nc2ccccc12)c1ccco1,0.2,-0.6,7.6,1.2,-1.6,7.4%

# Only D2 ag, Six1-Eya2 inh and CtBP-E1A inh, for some of the entries so far:
mol,D2 ag,Six1-Eya2 inh,CtBP-E1A inh
CCOC(=O)c1ccccc1NC(=O)COC(=O)C1=COCCO1,-3.1,9.4,6.6
C=CCC1c2cccc(C(=O)O)c2C(=O)N1c1cccc(OC)c1 (centres undefined),-2.6,5.8,.
